# TRPML1 blocker – human mucolipin-1 channel inhibition; activity change, negative = inhibition, % (test concentration not listed); Q9GZU1; AID 624415; TRPML1-inducible cells, Ca2+ dye fluorescence, FDSS; stronger effect = lower value; inhibition of EC80 agonist-evoked calcium signal; actives 0.02% (n = 390,000); in the data active means activity change below about -50%; inconclusive means about -30% to -50%; inactive means above about -30%;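 note: stimulus is agonist 54-4 at its EC80 concentration; % is set by controls: 0 for no effect and ±100 for the full control effect; compound concentration not given in the record; the text of the record puts the active cut at -80%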
#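 TRPML1-DL cells, Tet-induced overnight (~16 h, 37 °C) at 1,500 cells/well, were loaded with Ca8 no-wash dye plus quencher for 45-90 min at room temperature. Compounds were pinned during FDSS kinetic reading; agonist 54-4 at EC80 (4 uM final) then added.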
# D2 potentiator – positive allosteric modulators of human D2 dopamine receptor; DiscoveRx D2 beta-arrestin cells, luminescence, 90 min; 100% = 57 uM dopamine signal; potentiation, % (concentration not given with the values); actives 0.23% (n = 360,000); AID 624464; active = potentiation of 50% or more; inconclusive = 30% to 50%; inactive = 30% or less;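 note: compound concentration not given in the record; tested on top of an EC20 dose of dopamine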
#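 PathHunter beta-arrestin assay in DiscoveRx D2 cells. Compounds were added with an EC20 of dopamine (50 nM final) for 90 min at 37 deg C. Luminescence was read 1 h after detection reagent, with 57 uM dopamine as the EC100 control.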
# TRPML1 ag – human mucolipin-1 channel agonism | TRPML1-expressing cells, Ca2+ dye fluorescence, FDSS; host cell line not named in the record; reference of the full effect not given here | activation, % (no concentration beside the values) | actives 0.12% (n = 410,000); in the data active = activation above about 50%; inconclusive = about 30% to 50%; inactive = below about 30%; note: 0% is about no effect; the text of the record puts the active cut at 80%
#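 Agonist activity was taken from a 110 s kinetic Ca2+ dye read on the FDSS after pinning compounds onto TRPML1-DL cells. The cells were seeded at 1,500/well with Tet inducer, incubated about 16 h, then dye-loaded at room temperature.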
# TRPV1 potentiator – human TRPV1 potentiation; TRPV1-expressing cells, Fluo-8 calcium influx, capsaicin EC20 potentiation; host cell line not named in the record; control for the full effect not named in the record; potentiation, % at 8.33 µM; actives 0.02% (n = 320,000); AID 540277; active means potentiation above 80%; inconclusive means 30% to 80%; inactive means below 30%; note: 0% is about no effect
#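 TRPV1-expressing cells were cultured overnight at 35.5C and loaded with Fluo-8 calcium dye for 40 to 90 min at room temperature. After a 10 s baseline, compound was added and calcium influx was read kinetically for 3 min (ex 480/em 520 nm).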
# Six1-Eya2 blk – inhibitors of human Six1/Eya2 interaction; Q15475+O00167; AlphaScreen GST-Six1/His-Eya2 binding, biochemical; stronger effect = lower value; control for the full effect not named in the record; activity change, % (concentration not given with the values); actives 0.56% (n = 360,000); in the data active = activity change below about -65%; inconclusive = about -30% to -65%; inactive = above about -30%; note: % is set by controls: 0 for no effect and ±100 for the full control effect
# Target sequence (O00167 whole entry, looked up): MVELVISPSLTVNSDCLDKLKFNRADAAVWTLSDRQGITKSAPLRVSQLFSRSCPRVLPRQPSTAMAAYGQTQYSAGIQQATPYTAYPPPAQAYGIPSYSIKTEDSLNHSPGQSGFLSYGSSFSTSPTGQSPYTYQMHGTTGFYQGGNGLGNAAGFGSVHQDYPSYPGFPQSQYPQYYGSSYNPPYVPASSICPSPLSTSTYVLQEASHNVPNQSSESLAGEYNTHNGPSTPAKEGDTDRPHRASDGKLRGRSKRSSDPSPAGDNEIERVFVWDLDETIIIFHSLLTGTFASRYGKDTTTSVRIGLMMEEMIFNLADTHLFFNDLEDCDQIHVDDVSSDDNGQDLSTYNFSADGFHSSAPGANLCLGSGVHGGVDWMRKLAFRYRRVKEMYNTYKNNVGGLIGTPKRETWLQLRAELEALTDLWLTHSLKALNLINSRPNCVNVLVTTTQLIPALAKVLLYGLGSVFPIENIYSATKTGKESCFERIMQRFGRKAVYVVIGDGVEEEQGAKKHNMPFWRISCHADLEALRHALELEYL
# Target sequence (Q15475 whole entry, looked up): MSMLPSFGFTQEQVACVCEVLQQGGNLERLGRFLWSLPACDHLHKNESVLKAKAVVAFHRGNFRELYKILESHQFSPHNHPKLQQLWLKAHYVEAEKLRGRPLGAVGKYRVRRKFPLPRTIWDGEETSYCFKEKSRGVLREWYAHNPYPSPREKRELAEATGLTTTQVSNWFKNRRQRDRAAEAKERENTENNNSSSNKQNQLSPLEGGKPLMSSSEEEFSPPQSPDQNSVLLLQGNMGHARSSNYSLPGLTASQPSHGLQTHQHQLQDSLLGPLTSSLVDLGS
#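 Compounds are tested against tagged Six1 and Eya2 proteins bridged by glutathione donor and nickel acceptor beads; after a one-hour incubation at 37 °C without light, AlphaScreen emission is recorded.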
# CtBP-E1A inh – inhibitors of CtBP/E1A interaction | AID 651724 | AlphaScreen GST-E1A/His-CtBP binding, 1536-well; stronger effect = lower value; control for the full effect not named in the record | actives 0.49% (n = 340,000) | activity change, % (no concentration beside the values); in the data active means activity change below about -65%; inconclusive means about -30% to -65%; inactive means above about -30%; note: % is set by controls: 0 for no effect and ±100 for the full control effect; compound concentration not given in the record
#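 AlphaScreen with 125 nM GST-E1A and 125 nM His-CtBP (5X stocks) in Tris pH 8.0, 300 mM NaCl, BSA, Tween 20, TCEP. Compounds preincubated 2 h at 37 deg C, then glutathione donor/nickel acceptor beads added for 1 h at 37 deg C in dark.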
# An asterisk follows results filed as active; ? = inconclusive; . = no result given. Hits appear at their usual frequency. About 0.95% of those tested had a hit in this group.
SMILES,TRPML1 blocker,D2 potentiator,TRPML1 ag,TRPV1 potentiator,Six1-Eya2 blk,CtBP-E1A inh
CS(=O)(=O)N(CC(=O)N1CCOCC1)c1ccccc1Br,.,-24,.,-3,-8,.
Cc1ccc(OCCN2CCC2(C)C(=O)Nc2ccc3c(c2)OCO3)cc1 (centres undefined),.,-5,-0.9,.,-3,-15
C=CCc1cc(Cl)ccc1OCCCn1ccnc1,.,12,.,8,0,.
O=c1[nH]c(N2CCCCC2)nc2ncn(Cc3ccccc3)c12,.,-5,.,-18,5,6
COc1ccc(/C=C/C(=O)OCC(=O)c2ccc[nH]2)cc1,14,1,0.4,-7,7,5
O=C(CCc1c[nH]c2ccccc12)N1CCN(c2ccc(O)cc2)CC1,11,12,-0.6,-15,2,.
COc1cc(CNCCCN2CCOCC2)cc(Br)c1OCc1ccc(Cl)cc1,0,2,3.2,0,0,-5
O=C(c1cc(-c2cccc3ccccc23)nc2ccccc12)N1CCN(CCO)CC1,-10,2,0.6,.,4,.
CCc1ccccc1Nc1nn2c(=O)c3ccc(C(=O)NCc4cccs4)cc3nc2s1,-4,.,1.7,-4,.,.
CC1CCN(S(=O)(=O)c2ccc3c(c2)c(=O)c(C(=O)NCc2cccs2)cn3C)CC1,6,-8,0.6,2,3,-6
COc1ccc(CC(=O)NC(C)C2COc3ccccc3O2)cc1OC (centres undefined),-9,-12,0.7,-15,4,.
O=C(CSc1ccccc1C(=O)O)NC12CC3CC(CC(C3)C1)C2,12,-3,0.3,4,4,2
CCCOC(=O)CSC1=C(C#N)C(c2ccccc2Cl)CC(=O)N1 (centres undefined),-17,-5,0.0,0,1,-2
CCOC(=O)Cn1c(N2CCOCC2)nc2c1c(=O)[nH]c(=O)n2C,7,19,-0.8,23,-1,4
O=C1c2ccccc2C(=O)C1c1nccc2ccccc12,5,-18,1.5,2,3,-1
CN1CCN(c2ccc([N+](=O)[O-])cc2C(=O)c2ccc(Br)cc2)CC1,35,-14,-0.7,-19,-2,-7
CCOC(=O)C1CCN(C(=O)Cn2nc(C)n3cccc3c2=O)CC1,9,-4,2.4,-1,0,.
CC(C)C(CCNC(=O)CN1C(=O)c2ccccc2C1=O)c1ccco1 (centres undefined),-2,-15,-0.7,1,-1,1
Cc1ccccc1NC1(C#N)C(=O)Nc2ccccc21 (centres undefined),4,-13,0.5,-6,1,6
Cc1[nH]ccc(=O)c1OCc1ccc(Cl)cc1,-14,-1,2.9,1,4,4
COC(=O)c1ccc(C)c(NC(=O)CCc2ccc(OC)cc2)c1,25,-7,1.4,-22,11,7
O=C(Nc1ccc([N+](=O)[O-])cc1)Nc1ccc2c(c1)OCCO2,16,-11,-0.2,-14,-18,-3
COC(=O)c1c(NC(=O)CC2SC(N)=NC2=O)sc(C)c1C (centres undefined),30,0,0.9,5,-2,-13
CCc1cccc2sc(N3CCN(C(=O)c4ccc([N+](=O)[O-])o4)CC3)nc12,36,?,1.2,-3,?,-4
CC1CCCC(NC(=O)COC(=O)COc2ccc(Br)cc2)C1C (centres undefined),4,-2,0.5,.,4,10
CS(=O)(=O)NCCCNc1c(Cl)cccc1[N+](=O)[O-],0,-11,-0.1,8,4,-3
COc1cccc(NC(=O)CCCn2nc(C)c3c(C)n(-c4ccccc4)nc3c2=O)c1,-21,-7,2.5,23,3,1
O=C(COC(=O)Cc1ccccc1F)Nc1cccc(S(=O)(=O)NC2=NCCCCC2)c1,-1,-11,-1.6,-1,-1,2
CCCCOc1ccc(/C=C/C(=O)Nc2ccc(C(N)=O)cc2)cc1,4,27,0.2,8,8,19
Cc1ccccc1C(=O)Nc1cccc(NC(=O)c2ccc(-c3ccc(Br)cc3)o2)c1,25,-7,-0.1,10,7,-2
O=C1/C(=C/c2ccco2)SC(=S)N1CCC(=O)N1CCCCC1CCO (centres undefined),?,-9,0.1,11,?,.
S=C(NCc1cccnc1)Nc1ccc(Oc2ccc(Cl)cc2)cc1,-1,-8,2.4,.,5,-1
CC(C)OP(=O)(OC(C)C)C(Nc1cccc(C(=O)O)c1)c1ccccc1 (centres undefined),-1,-2,1.2,.,1,2
CC(C)NC(=O)c1cc(C2CCCCN2S(=O)(=O)c2cccs2)on1 (centres undefined),0,-11,-0.6,.,2,6
CCCNC(=O)Cc1c(C)oc2ccccc12,-19,-9,2.0,22,4,6
CCOC(=O)C1=C(C)NC2=C(C(=O)C(C(=O)OCC)C(c3ccc(OC)cc3)C2)C1c1ccccn1 (centres undefined),-4,-10,1.6,15,5,4
O=C1[C@H]2[C@@H](c3ccc(C(F)(F)F)cc3)N[C@]3(CCCN(Cc4ccc(Cl)cc4)C3=O)[C@H]2C(=O)N1Cc1ccccc1,6,-1,3.5,.,-7,5
O=S(=O)(c1ccc(Cl)s1)N1CCCCC1,5,4,0.3,5,17,9
CC1CCCCC1NC(=O)COC(=O)C12CC3CC(CC(Cl)(C3)C1)C2 (centres undefined),16,-6,0.5,-20,-2,31
OC(COc1ccc2c(c1)OCO2)CN1CCCCC1 (centres undefined),-4,-11,2.2,6,-6,11
CC1(NC(=O)Cc2csc(-c3cccc(Cl)c3)n2)CCS(=O)(=O)C1 (centres undefined),-8,-3,-1.4,5,-1,.
CCN1CCN(C(c2cccs2)C(C)NC(=O)c2ccco2)CC1 (centres undefined),12,8,0.7,-11,3,-3
CCn1c(SCC(=O)N2CCCc3ccccc32)nnc1-c1ccoc1C,-2,-2,-0.6,8,-3,2
Cc1cc(C)nc(Nc2ncc(O)n2-c2ccccc2)n1,3,-10,-0.1,1,4,17
C[C@H](NC(=O)c1ccc(Cl)cc1)C(=O)OCn1nnc2ccccc2c1=O,47,16,0.7,.,6,-1
COC(=O)C1=CN(C2CC2)C=C(C(=O)OC)C1c1ccc(C(F)(F)F)cc1,27,-7,4.7,-20,6,11
CC1(c2cccc3ccccc23)OC(=O)c2ccccc21 (centres undefined),44,-10,5.3,.,4,0
Cc1csc(NC(=O)CSc2nnc(NC(=O)C3CC(=O)N(c4ccccc4)C3)s2)n1 (centres undefined),-14,-14,0.1,12,-7,-1
O=C1OC2(c3ccccc31)c1ccccc1-c1ccccc12,-10,-2,0.3,.,-10,-5
O=C(Cn1nnc(-c2ccc(CN3CCOCC3)cc2)n1)N1CCCc2ccccc21,1,-6,-1.0,11,-2,-2
Cc1c(OCC(=O)C(C)(C)C)ccc2c(-c3ccccc3)cc(=O)oc12,17,-2,2.0,2,0,-1
O=c1cc(N2CCN(Cc3ccccc3)CC2)[nH]c(=O)n1-c1cccc(C(F)(F)F)c1,-14,8,0.4,-101,1,-5
Cc1ccc(NC(=S)N2CCC(c3ccc(C)cc3)C2)cc1 (centres undefined),-15,-9,0.6,-9,0,-2
CCc1ccc(NC(=O)CSc2nc(N)c(NC(=O)c3ccc(F)c(F)c3)c(=O)[nH]2)cc1,7,2,0.4,-1,1,-1
O=C(CCC(=O)N1CCN(c2ccc(F)cc2)CC1)c1ccccc1,4,-11,-1.0,-23,-2,0
CN1CCN(c2ccc(-c3ccnn3C(=O)Nc3ccccc3)cc2)CC1,2,-24,-0.3,-11,-1,5
Cc1nonc1-c1csc(N)n1,-7,-1,0.5,7,-17,9
Cc1cc(C)c(S(=O)(=O)N2CCCC(C(=O)NCc3ccccn3)C2)c(C)c1 (centres undefined),0,-6,0.5,-1,0,-2
CCN(c1ccc(OC)cc1)c1ncnc2nc[nH]c12,-23,-1,-0.1,?,10,22
CCCc1cc(=O)[nH]c(N/N=C/C=C\c2ccccc2)n1,0,-10,0.9,1,-8,-9
# (more compounds)
SMILES,TRPML1 blocker,D2 potentiator,TRPML1 ag,TRPV1 potentiator,Six1-Eya2 blk,CtBP-E1A inh
N#CC(Cc1cc2ccccc2n1S(=O)(=O)c1ccccc1)OCc1ccccc1 (centres undefined),75,1,0.4,.,10,7
Cc1ccc(C(=O)n2cnc3ccccc32)cc1C,-12,-10,1.0,-4,9,17
O=C(CCC1CCCCC1)NCc1cccs1,10,-10,-0.3,-2,2,1
COCCNC(=O)CSc1nc(N)c(NC(=O)c2ccccc2F)c(=O)[nH]1,22,7,1.9,5,1,13
O=C(c1ccco1)N1N=C(c2cccs2)CC1c1cc([N+](=O)[O-])ccc1O (centres undefined),50,-10,0.1,5,-11,?
CCOC(=O)c1c(C)n(-c2ccccc2)c2ccc(O)c(CN(C)C)c12,42,-27,0.9,-9,-14,-10
Cc1cc(C(=O)OCC(=O)c2ccc(Br)s2)no1,-14,-12,0.8,-1,3,2
COC(=O)CSc1nc(-c2ccccc2)cc(-c2ccco2)c1C#N,10,-8,1.6,-1,20,20
O=C1/C(=C\c2ccccc2)SC(=S)N1CCC(=O)N1CCCCC1CCO (centres undefined),-7,-3,-0.7,-5,-5,-14
CCOC(=O)c1cn2nc(N3CCCCC3)ccc2n1,2,2,0.9,-13,6,0
CC(=O)c1ccc(NC(=S)N2CCC(O)CC2)cc1,-10,-3,0.6,0,-9,2
O=S(=O)(c1ccccc1)N1CCN(c2ccnc3cc(Cl)ccc23)CC1,2,-1,0.9,2,-2,.
Cc1ccc(NC(=O)CN2CCC3(O)CCCCC3C2c2ccc3c(c2)OCO3)c(C)c1 (centres undefined),35,-10,3.3,-13,-4,12
O=C1NC[C@H](CCCCN2C[C@H](Cc3ccc(O)cc3)N(CCc3ccccc3)C(=O)C2=O)N(CCC2CCCCC2)C1=O,.,.,-0.8,.,12,1
O=C(O)CNC(=O)c1ccc(Oc2c(F)c(F)c(Oc3ccc(C(=O)NCC(=O)O)cc3)c(F)c2F)cc1,-7,-2,-0.5,7,-6,0

# Three of the compounds above, as labelled records.
CC1CCCC(NC(=O)COC(=O)COc2ccc(Br)cc2)C1C (centres undefined)
  TRPML1 blocker: 4
  D2 potentiator: -2
  TRPML1 ag: 0.5
  TRPV1 potentiator: .
  Six1-Eya2 blk: 4
  CtBP-E1A inh: 10
CS(=O)(=O)NCCCNc1c(Cl)cccc1[N+](=O)[O-]
  TRPML1 blocker: 0
  D2 potentiator: -11
  TRPML1 ag: -0.1
  TRPV1 potentiator: 8
  Six1-Eya2 blk: 4
  CtBP-E1A inh: -3
COc1cccc(NC(=O)CCCn2nc(C)c3c(C)n(-c4ccccc4)nc3c2=O)c1
  TRPML1 blocker: -21
  D2 potentiator: -7
  TRPML1 ag: 2.5
  TRPV1 potentiator: 23
  Six1-Eya2 blk: 3
  CtBP-E1A inh: 1

# (continued)
SMILES,TRPML1 blocker,D2 potentiator,TRPML1 ag,TRPV1 potentiator,Six1-Eya2 blk,CtBP-E1A inh
Cc1nn(-c2ccccc2C(=O)O)c(=O)c2ccccc12,7,-7,0.9,-18,6,6
O=c1cc(-c2ccccc2)nc2nc(COc3ccccc3)[nH]n12,5,-5,-0.1,13,-4,0
CCOc1ccc(NC(=O)c2nnn(CC(=O)Nc3ccccc3OC)c2N)cc1,1,2,0.0,.,0,0
COc1cc(NC(=O)CSc2nnc(-c3cc(C)on3)o2)cc(OC)c1,6,6,-0.2,0,-6,17

# Assay outcomes (PubChem BioAssay)
